Assay outcomes (PubChem BioAssay)
eIF4H FP inh – inhibitors of RNA binding by human eIF4H | eIF4H fluorescence polarization binding assay | AID 2012 | 290,000 tested, 0.94% active | inhibition, % at 35 µM;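 active = 50% or more with normal probe brightness, or confirmed in later tests; inconclusive = above 50% with abnormal brightness, or retests that disagree; inactive = below 50% or failed in later tests; about a fifth of its hits are not listed in these tables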;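 note: calls also rest on retests at 20 µM and on dose response follow-up; 0% = protein and probe with vehicle and 100% = probe without protein; strong numbers were not always called active; many hits fall short of the cut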
Rce1 inhib – inhibitors of yeast Ras-converting enzyme | Q03530 | yeast membranes, quenched prenylated peptide cleavage fluorescence | calls only | 290,000 tested, 0.27% active | AID 2563;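 active = fall in fluorescence gain of 50% or more versus controls, with final raw signal at or below 3038400; inconclusive = same 50% fall but final raw signal above 3038400; inactive = fall in fluorescence gain under 50%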;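 note: plate controls were neutral control wells for no effect and wells lacking membranes for full effect; tested at 10 µM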
MT1-MMP act inh – MT1-MMP (human) activation inhibition | P50281 | HT1080 RFP-PRO-GFP cells, GFP/RFP ratio fluorescence, overnight; percent of plate control window, DMSO zero | GFP/RFP ratio change, % at 20 µM | 360,000 tested, 0.061% active | AID 651647;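 active = GFP/RFP ratio change of at least 30% with cell ATP level not reduced by more than half and red fluorescence within 50% of control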; note: strong numbers were not always called active
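Material: RFP-PRO-GFP reporter HT1080 cells. Dosing: single-point 20 µM compound, 1% DMSO. Controls: DMSO and RFP-L50D-GFP cell wells. Timing: cells overnight before dosing, compound overnight, 37 °C, 5% CO2. Measure: GFP/RFP fluorescence ratio.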
HIV Env fusion – inhibitors of HIV Env-mediated cell fusion. inhibition, % at 12.3 µM. HeLa-JRFL Env/CEM21 cell fusion, luciferase. 360,000 tested, 1.1% active. AID 651610;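 active = mean replicate inhibition score of at least 50 and every replicate individually at or above 50; inconclusive = only one of the two criteria met; inactive = mean below 50 and not all replicates reaching 50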;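 note: 0% = plate neutral controls and 100% = maraviroc near 300 nM; one replicate is shown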
Yeast UUG start – yeast start codon fidelity modulation | S. cerevisiae UUG-firefly luciferase reporter, luminescence/redox ratio | activity score, % at 18.7 µM | 350,000 tested, 0.13% active;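 active = replicate mean at a twofold rise or more, about +100% in these data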;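 note: firefly luciferase made from a UUG start codon reports start codon fidelity; reporter light over untreated wells divided by growth signal over untreated wells; some hits fall short of that in this replicate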
PABP FP inh – PABP-poly(A) binding inhibition; P11940; PABP-poly(A) RNA binding, fluorescence polarization; inhibition, % at 35 µM; 290,000 tested, 1% active;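 active = 50% or more with normal probe brightness, or confirmed in later tests; inconclusive = above 50% with abnormal brightness, or retests that disagree; inactive = below 50% or failed in later tests; about a fifth of its hits are not listed in these tables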;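 note: calls also rest on retests at 20 µM and on dose response follow-up; controls were probe without protein and protein plus probe with vehicle; some compounds called inactive have numbers as strong as hits; many hits fall short of the cut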
Target sequence (P11940 whole entry, looked up): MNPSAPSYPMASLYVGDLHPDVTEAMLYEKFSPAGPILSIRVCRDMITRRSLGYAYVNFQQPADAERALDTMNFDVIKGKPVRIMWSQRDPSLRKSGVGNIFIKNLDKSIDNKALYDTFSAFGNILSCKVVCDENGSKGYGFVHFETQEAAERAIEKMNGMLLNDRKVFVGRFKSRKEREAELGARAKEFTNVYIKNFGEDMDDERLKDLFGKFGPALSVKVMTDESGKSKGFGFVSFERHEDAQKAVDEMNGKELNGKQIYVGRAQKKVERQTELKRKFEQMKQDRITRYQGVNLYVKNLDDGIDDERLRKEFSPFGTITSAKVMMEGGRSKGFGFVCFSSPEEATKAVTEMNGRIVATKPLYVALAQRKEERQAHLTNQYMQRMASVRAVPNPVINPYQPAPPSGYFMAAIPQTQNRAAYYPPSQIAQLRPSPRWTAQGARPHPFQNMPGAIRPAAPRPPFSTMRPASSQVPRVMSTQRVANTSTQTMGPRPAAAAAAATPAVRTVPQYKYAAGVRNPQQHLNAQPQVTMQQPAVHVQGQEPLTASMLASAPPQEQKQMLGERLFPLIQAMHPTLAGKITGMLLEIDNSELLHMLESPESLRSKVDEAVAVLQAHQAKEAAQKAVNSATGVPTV
CSC inhib – blocks cancer stem cells. cancer stem cell-like cells viability, luminescence. inhibition, % at 7.5 µM. 300,000 tested, 1.1% active. AID 2717;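 active = mean at 75% or more and at least half the replicates too; inconclusive = mean and replicates disagree; tested in HMLE shEcad cells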;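 note: 0% = median of negative and 100% = median of positive control wells; the first replicate is given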
PABP FP inh retest – recorded beside PABP FP inh, whose call it bears; inhibition, %; compound at 20 µM; confirmation repeats;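 mean of two retest wells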
MT1-MMP act inh RFP – also measured in MT1-MMP act inh; calls as there; RFP signal change, %; measured here: RFP expression control read;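 0 = vehicle wells; hits needed this value within 50% of zero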
* = called active by the depositor; i = inactive; ? = inconclusive; nt = no result given; + = active, no number. Rows were taken by chance (roughly 2.9% active in at least one column).

SMILES	eIF4H FP inh	Rce1 inhib	MT1-MMP act inh	MT1-MMP act inh RFP	HIV Env fusion	Yeast UUG start	PABP FP inh	CSC inhib	others
CCN(CC(=O)Nc1c(F)cccc1F)C(=O)CCN1C(=O)C2CCCCC2C1=O (centres undefined)	nt	i	0	0	-1	nt	nt	-12
Cc1cc(=O)oc2cc(OCC(=O)N3CCCC3)ccc12	nt	nt	1	6	nt	-21	nt	-14
Cc1nc(SCC(=O)c2ccc(Cl)cc2)c([N+](=O)[O-])[nH]1	8	i	2	-1	-49	-1	4	-1
Cc1ccc(S(=O)(=O)Nc2ccc3c(c2)C(=O)N([C@H](C)CO)C[C@H](C)[C@@H](CN(C)C(=O)Nc2ccc4c(c2)OCO4)O3)cc1	nt	nt	7	7	-4	-10	nt	-19
CCN(CC)CC(=O)Nc1ccc2c(c1)Nc1ccccc1CC2	3	i	6	-2	nt	0	13	22
CC(=O)c1ccc(N(C)C)c2c(N(C)C)cccc12	1	i	-3	5	-60	-21	6	-12
C=CCNC(=O)/C(=C\C=C\c1ccccc1)NC(=O)c1ccccc1Cl	-8	i	0	1	-6	nt	-6	-1
CCOC(=O)c1c(NC(=O)C2CC2)sc2c1CC(C)(C)OC2	-8	i	-1	1	-20	nt	9	-12
CCC(Oc1cccc(C)c1)C(=O)Nc1ccccc1C(=O)N1CCOCC1 (centres undefined)	1	i	0	3	-14	0	11	-18
CC(=O)c1cccc(NC(=O)c2ccc(-c3ccccc3[N+](=O)[O-])o2)c1	-10	i	0	-8	-97	-4	1	-4
NC(=O)c1ccc(-c2nnc(Nc3ccc(S(N)(=O)=O)cc3)c3ccccc23)cc1	-11	i	1	4	1	2	1	7
COc1ccc(CCNC(=O)CCCN2C(=O)C(c3ccccc3)Oc3cccnc32)cc1OC (centres undefined)	-4	i	-3	1	4	-26	8	-9
Cc1ccsc1C(=O)NNC(=O)C1C2C=CC(C2)C1C(=O)O (centres undefined)	-6	nt	2	4	5	-9	5	-7
Cc1nc(SC(C(=O)c2ccccc2)c2ccccc2)n[nH]1 (centres undefined)	-7	i	6	6	nt	0	-15	-13
O=C(Nc1sc2c(c1C(=O)O)CCC2)c1cccc(Cl)c1	7	i	4	3	-72	nt	8	13
Cc1cc(C)c(-c2c(O)c3cccnc3n(C)c2=O)c(C)c1	nt	i	-1	4	11	-8	nt	-7
CCCCC(=O)N(C)c1c(CC)nc2c(OCc3ccc(S(C)(=O)=O)cc3)cccn12	nt	nt	-6	4	16	-8	nt	nt
NS(=O)(=O)c1ccc2nc(-c3ccccc3)c(-c3ccccc3)nc2c1	13	i	-3	-1	0	-19	-5	nt
O=C(Cn1cnc2scc(-c3ccc(Br)cc3)c2c1=O)N1CCOCC1	-10	i	0	4	5	nt	-11	-3
Cc1oc2cc(O)ccc2c(=O)c1Oc1ccc(F)cc1	2	i	2	0	4	-18	-3	-7
CCOc1ccc(NC(=O)CN2C(=O)NC(C)(c3ccc(OC(F)F)cc3)C2=O)cc1 (centres undefined)	-7	i	-4	-8	-26	-11	9	1
COc1ccc(/C(O)=C2/C(=O)C(=O)N(CCCN3CCOCC3)C2c2ccc(C)cc2)cc1 (centres undefined)	2	i	1	1	13	-20	6	-11
CN(Cc1ccco1)C(=O)CSc1nn2c(=O)c(C(C)(C)C)nnc2s1	nt	nt	1	-1	nt	-6	nt	-4
COC(=O)CSc1nccc(C)n1	0	i	1	1	-72	nt	1	-11
CCCCNC(=O)C1CCN(S(=O)(=O)c2cnc[nH]2)CC1	0	i	20	14	-21	-4	6	-4
NC(=O)C1CCN(c2ccc(S(=O)(=O)N3CCC(Cc4ccccc4)CC3)cn2)CC1	3	i	0	-22	1	nt	1	1
O=C(CNC(=O)Cc1ccccc1)NCC(=O)N1CCCCC1	3	i	0	2	-11	-14	-2	-3
Clc1ccc(-c2cc(CSc3ccccc3)on2)cc1	-1	i	-1	2	nt	-15	0	-7
Cn1cc(CN2CCCCC2CO)c(-c2ccc(Oc3ccccc3)cc2)n1 (centres undefined)	8	i	9	4	6	-16	7	10
CCOC(=O)c1cccc(NC(=O)Cn2c(CC(=O)NC)nc3ccccc32)c1	-6	i	-3	-6	-7	-1	-4	-8
Cc1ccc(CSc2nc(-c3ccccc3)c(C#N)c(=O)[nH]2)cc1	7	i	6	3	19	10	15	28
CCOC(=O)c1csc(NC(=O)CSc2nnc(C3CC3)n2C)n1	-1	i	1	4	11	-22	4	3
CC1=CN2C(c3cccc([N+](=O)[O-])c3)=NON(c3ccc(C)cn3)C2C=C1 (centres undefined)	nt	nt	-2	-1	10	-13	nt	nt
CC1Cc2ccccc2N1C(=O)CSc1nnc(CSc2ncccn2)n1C (centres undefined)	-1	i	0	3	2	-11	-3	nt
CC[C@H](CO)Oc1cc(NCc2ccc(Cl)c(Cl)c2)c2ncn(C(C)C)c2c1	nt	nt	1	0	-10	-24	nt	nt
Cc1nn(C(C)C(=O)NNC(=S)Nc2ccc(Cl)cc2)c(C)c1[N+](=O)[O-] (centres undefined)	9	i	6	1	-66	-8	6	-3

Arranged by heavy-atom count (highest first): some entries from above
SMILES	eIF4H FP inh	Rce1 inhib	MT1-MMP act inh	MT1-MMP act inh RFP	HIV Env fusion	Yeast UUG start	PABP FP inh	CSC inhib	others
NC(=O)C1CCN(c2ccc(S(=O)(=O)N3CCC(Cc4ccccc4)CC3)cn2)CC1	3	i	0	-22	1	nt	1	1
CCOC(=O)c1cccc(NC(=O)Cn2c(CC(=O)NC)nc3ccccc32)c1	-6	i	-3	-6	-7	-1	-4	-8
CCCCNC(=O)C1CCN(S(=O)(=O)c2cnc[nH]2)CC1	0	i	20	14	-21	-4	6	-4

New compounds follow:
SMILES	eIF4H FP inh	Rce1 inhib	MT1-MMP act inh	MT1-MMP act inh RFP	HIV Env fusion	Yeast UUG start	PABP FP inh	CSC inhib	others
O=S(=O)(c1cccs1)N1CCN(C/C=C/c2ccccc2)CC1	-6	nt	2	-6	nt	-6	7	22
O=C(/C=C/c1cccc(Br)c1)OCC(=O)N1CCN(c2ccccc2)CC1	nt	nt	4	3	-1	-6	nt	nt
CC(C(=O)Nc1ccc(C(N)=O)cc1)N1C(=O)c2ccccc2S1(=O)=O (centres undefined)	nt	i	1	2	nt	nt	nt	15
C=CCn1c(SCc2ccc(F)cc2)nnc1-c1sc2nc(C)cc(C)c2c1N	2	i	-6	-8	12	-22	-2	-8
COc1ccccc1N(C)C(=O)c1cc(S(=O)(=O)N2CCCC2)cn1C	-3	i	-2	4	-13	-16	-4	-13
COc1cccc(CN2CCCC(N3CCc4ccccc4C3)C2)c1O (centres undefined)	8	i	-2	1	8	-7	-1	-4
CN(C)/N=C/c1ccc([N+](=O)[O-])cc1[N+](=O)[O-]	-12	i	0	-1	-10	nt	8	11
O=C(CC1S/C(=N/N=C/c2c[nH]c3ccccc23)NC1=O)Nc1ccccc1 (centres undefined)	9	i	-1	4	-36	nt	4	2
COc1ccc(C(C)(C)C)cc1NC(=O)COC(=O)c1cnc(C)cn1	-16	i	-1	2	1	-13	-5	-14
CN(c1ccccn1)c1ncnc2[nH]ncc12	1	i	4	5	-25	-8	8	-14
CN(c1ccccc1C(=O)Nc1ccc(S(=O)(=O)N2CCOCC2)cc1)S(C)(=O)=O	6	i	nt	nt	3	nt	20	-23
CC(C)c1ccc(NC(=O)COc2nncc3ccccc23)cc1	-9	+	-1	1	6	nt	10	5
Cc1ccc(S(=O)(=O)N(C)C)cc1NC(=O)[C@H](Cc1ccccc1)N1C(=O)c2ccccc2C1=O	1	i	3	4	nt	nt	2	3
COCCNC(=O)/C(C#N)=C\c1ccc(CNC(=O)C(=O)Nc2ccc(C)c(C)c2)o1	-11	i	-1	3	1	nt	-5	-4
COc1ccc(/C=C2\SC(=S)N(NS(=O)(=O)c3ccccc3)C2=O)c(OC)c1	?	i	4	7	-1	-10	51	20	PABP FP inh retest=22
CC1(C)OC(=O)C(=Cc2ccc(-c3ccc(S(N)(=O)=O)cc3)o2)C(=O)O1	40	i	-6	1	-51	-11	7	9
CC(Sc1nnc(Cc2cccs2)n1C)C(=O)Nc1ccc(C(N)=O)cc1 (centres undefined)	nt	nt	-1	2	-45	-19	nt	nt
CCOC(=O)N1CCN(Cc2cn3ccccc3n2)CC1	0	i	0	2	19	-11	-2	-16
CCn1c(=O)n(CC)c2cc(S(=O)(=O)N3CCC(c4ccccc4)CC3)ccc21	13	i	11	-10	nt	-33	6	11
Cn1c(=NC(=O)CS(=O)(=O)c2ccccc2)sc2cc([N+](=O)[O-])ccc21	nt	i	4	1	nt	nt	nt	-3
Fc1ccc(OCc2nc(-c3cccs3)no2)cc1	-4	i	3	5	-57	-11	-21	-4
O=C1C=CC(=O)N1c1ccc(I)cc1Cl	-1	i	nt	nt	nt	nt	8	-6
O=C(O)c1cc2ccccc2cn1	nt	nt	-7	4	-57	-19	nt	nt
CC(c1nc2ccccc2c(=O)[nH]1)N1CCCN(S(=O)(=O)c2ccc(F)cc2)CC1 (centres undefined)	nt	nt	6	2	nt	-41	nt	-1
Cc1cc(O)cc(=O)n1CCc1ccccc1	-5	i	2	4	-120	-21	-3	8
CCN(CC)CCNC(=O)C(C)c1nn(C)c(=O)c2ccccc12 (centres undefined)	25	i	0	2	nt	5	14	-10
N=c1c(C(=O)NCc2ccco2)cc2c(=O)n3ccccc3nc2n1CCc1ccccc1	59*	i	2	1	nt	nt	60*	3
CC(C)c1ccc(NC2CCCN(C(=O)CN3CCCCC3=O)C2)cc1 (centres undefined)	nt	nt	-1	-2	-9	-9	nt	nt
O=C(c1ccccc1)C(Sc1ncn[nH]1)c1ccccc1 (centres undefined)	-8	i	1	1	nt	-4	18	3
COc1ccc(-c2cc3ccccc3nc2N)cc1OC	-2	i	3	-11	32	-4	-14	-9
CC1CCCN(Cc2cnc(Cl)s2)C1 (centres undefined)	10	i	3	8	nt	-10	0	nt
O=C1OC(/C=C/c2ccccc2)=NC/1=C/C=C/c1ccccc1	48	i	0	5	17	-7	-6	nt
CC1C(=O)OC2C1CCC1(C)CCC(=O)C(C)C21 (centres undefined)	0	i	-2	3	2	-20	9	10
CCOc1ccc(-c2nc(S(=O)(=O)c3ccccc3)c(N3CCOCC3)o2)cc1	9	i	-3	1	-6	nt	3	-10
O=C(COC(=O)c1cc(S(=O)(=O)NCc2ccccc2)ccc1O)NCc1ccccc1	1	i	3	0	2	-6	-2	7
CCOCCCn1c(SCC(=O)/C(C#N)=C(\C)N)nc2ccccc2c1=O	-16	i	2	0	nt	-15	7	-5
C=CCN1C(=O)/C(=C/C(=O)OC)S/C1=N\NC(=O)c1ccccc1	3	i	3	3	28	-13	-8	-16
COc1ccccc1C(=O)NC1CC2CCC(C1)N2Cc1ccccc1 (centres undefined)	-4	i	0	3	-20	-3	-8	-11
CCOc1ccc(C(=O)CCC(=O)Nc2cc(C)ccn2)cc1	nt	i	-3	1	-2	-20	nt	-14
O=C(CCN1C(=O)C2CC=CCC2C1=O)Nc1cccc(S(=O)(=O)N2CCCCC2)c1 (centres undefined)	nt	nt	5	-4	nt	10	nt	-2
CCOc1ccc(NC(=S)NC(=O)c2c(Br)cnn2C)c([N+](=O)[O-])c1	5	i	2	-9	-22	nt	-8	2
CC(C(=O)N(C)C1CCS(=O)(=O)C1)N1C(=O)/C(=C/c2cccs2)SC1=S (centres undefined)	-7	i	5	-11	-7	14	-4	-5
Cc1ccc(S(=O)(=O)N2CCN(C(=O)COC(=O)c3c(C)noc3C)CC2)c(C)c1	-2	i	5	0	-12	-11	-13	-6
